MenB inh: Mtb MenB enzyme inhibition; inhibition, %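 (about 12 µg/mL by stock and volumes)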; MenB enzyme assay, absorbance read-out; some hits fall short of the stated cut; 100,000 compounds, 0.43% hits; P9WNP5;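 active = mean of two replicates above 30%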;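 also: 0% = no compound and 100% = wells with inactive enzyme; the first replicate is given; strong numbers were not always called active; inactives centre near -10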
Mtb MbtI inh: inhibitors of Mycobacterium tuberculosis siderophore enzyme MbtI; P9WFX0; purified MbtI enzyme, fluorescence intensity read-out; inhibition, %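 (about 17 µg/mL by stock and volumes)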; 100,000 compounds, 0.89% hits; AID 493033;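 active = above 50% in both replicates, above 80% if mildly self-fluorescent; inactive = the rest, strongly fluorescent compounds included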;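 also: 0% = mean of negative and 100% = mean of positive controls; one replicate is shown; some compounds called inactive have numbers as strong as hits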
Target sequence (P9WFX0 whole entry, looked up): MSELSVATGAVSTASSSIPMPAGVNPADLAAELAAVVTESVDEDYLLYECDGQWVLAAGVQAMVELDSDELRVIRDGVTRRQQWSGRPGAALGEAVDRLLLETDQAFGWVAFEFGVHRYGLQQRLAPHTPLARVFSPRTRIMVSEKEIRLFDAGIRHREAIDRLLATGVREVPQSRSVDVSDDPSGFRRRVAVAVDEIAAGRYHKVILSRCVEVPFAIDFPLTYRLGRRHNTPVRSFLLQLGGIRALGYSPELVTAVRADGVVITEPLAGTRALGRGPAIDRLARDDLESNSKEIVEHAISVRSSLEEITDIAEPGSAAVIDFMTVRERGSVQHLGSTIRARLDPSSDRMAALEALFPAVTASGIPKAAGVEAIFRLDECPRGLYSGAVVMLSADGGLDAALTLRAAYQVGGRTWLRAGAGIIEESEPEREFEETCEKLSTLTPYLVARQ
PV pol inh: inhibitors of poliovirus RNA polymerase binding and polymerization; % elongation, % (compound at 16.7 µg/mL); 150,000 compounds, 0.66% hits; poliovirus polymerase elongation, fluorescence polarization; hits give low values; P03300; in the data active = % elongation below about 90%; also: some results filed as inactive read as strong as hits
Target sequence (P03300 1749-2209 limits assumed): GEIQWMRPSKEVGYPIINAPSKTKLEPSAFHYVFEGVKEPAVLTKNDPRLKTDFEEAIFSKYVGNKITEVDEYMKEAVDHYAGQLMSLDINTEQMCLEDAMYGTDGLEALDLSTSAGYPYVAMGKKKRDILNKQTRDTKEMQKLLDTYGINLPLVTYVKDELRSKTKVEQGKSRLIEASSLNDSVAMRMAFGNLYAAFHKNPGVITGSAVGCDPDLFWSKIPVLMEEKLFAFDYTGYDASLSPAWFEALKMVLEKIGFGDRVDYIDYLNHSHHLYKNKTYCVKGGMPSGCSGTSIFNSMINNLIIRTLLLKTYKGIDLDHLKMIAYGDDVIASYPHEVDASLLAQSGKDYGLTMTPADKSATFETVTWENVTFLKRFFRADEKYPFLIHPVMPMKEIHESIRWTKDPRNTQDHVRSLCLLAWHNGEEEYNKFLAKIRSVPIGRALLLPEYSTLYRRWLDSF
PV pol inh intensity: also measured in PV pol inh; calls as there; % elongation; measured here: total intensity read-out; formula for this scale not given here;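 total fluorescence in place of polarization; lower means less elongation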
An asterisk follows results filed as active; i = inactive; nt = no result given. An unsorted share of the library. About 1.7% of those tested had a hit in this group.

SMILES | MenB inh | Mtb MbtI inh | PV pol inh | PV pol inh intensity
O=C(NCc1cccs1)c1ccc2c(c1)N(Cc1ccccc1)C(=O)c1ccccc1S2 | -20.1 | -0.5 | 100.0 | 104.0
CC(C)(C)c1oc2cc(Br)c(O)cc2c1C(=O)O | -32.6 | 3.2 | 100.0 | 99.0
COc1ccc(CCn2c(=O)[nH]c3cc(C(=O)NCc4ccco4)ccc3c2=O)cc1OC | -10.5 | -8.4 | 98.0 | 101.0
CCOC(=O)N1CC=C2C(C#N)=C(N)C(C#N)(C#N)C(CC)C2C1 (configuration not stated) | -22.1 | 4.0 | 102.0 | 105.0
CCNc1ccc(S(=O)(=O)C(F)(F)F)cc1NC(=O)CC#N | -0.2 | 6.0 | 102.0 | 101.0
Cc1nn(-c2ccccc2)c2sc(C(=O)N/N=C/c3ccccc3)cc12 | 32.0 | -4.7 | 102.0 | 101.0
COc1ccccc1CNC(=O)C(C)n1cccc1C(=O)c1ccccc1 (configuration not stated) | -6.6 | -11.7 | 102.0 | 108.0
Fc1cccc(F)c1/C=N/n1cnnc1 | nt | -5.2 | 102.0 | 106.0
NC(=O)CSc1nc(-c2ccccc2Cl)ns1 | 4.3 | -3.7 | 98.0 | 100.0
Cc1cccc(CN2CCN(Cc3cccc(C)c3O)CC2)c1O | -15.2 | nt | 104.0 | 110.0
c1ccc(-c2[nH]ncc2-c2nc3ccccc3[nH]2)cc1 | nt | 89.7 | 103.0 | 105.0
CN(C)C(=O)COc1cc2oc(=O)c3c(c2cc1Cl)CCC3 | 2.2 | 1.2 | 102.0 | 108.0
Cc1n[nH]c(C)c1CCCCCOc1ccccc1 | -17.8 | -2.4 | 105.0 | 103.0
COC(=O)C1CCN(c2cc(C)c3cccc(C(C)C)c3n2)CC1 | -25.4 | 95.2 | 101.0 | 108.0
NC(=O)CCS(=O)(=O)c1ccccc1 | -18.9 | -0.9 | 105.0 | 109.0
CC1=NN(C(=O)C2CC2)C(=O)C1Cc1ccc(F)cc1 (configuration not stated) | 7.7 | 8.1 | 104.0 | 95.0
O=C(O)CNC(=O)Cn1cnc2sc3c(c2c1=O)CCCC3 | -16.0 | -0.4 | 105.0 | 106.0
CN(C)c1ccc(/C=c2/sc3nnc(-c4ccccc4)n3c2=O)cc1 | 9.4 | 1.2 | 107.0 | 113.0
O/N=C/c1ccc(Cl)s1 | -20.2 | 1.3 | 99.0 | 98.0
CCC1Oc2ccccc2N(CC(=O)N2CCOCC2)C1=O (configuration not stated) | 11.3 | -2.6 | 102.0 | 98.0
C=CCSC1=C(C#N)C(c2ccc(OC)cc2)CC(=O)N1 (configuration not stated) | -20.4 | nt | 105.0 | 112.0
COC(=O)c1ccsc1NC(=O)c1cccc(S(C)(=O)=O)c1 | -14.9 | 20.7 | 99.0 | 108.0
Cc1ccc(OCC(=O)C(C#N)c2nc3ccccc3[nH]2)cc1 (configuration not stated) | 0.0 | 8.5 | 99.0 | 98.0
Cc1cc(C(F)(F)F)c2c(N)c(C#N)sc2n1 | 16.6 | 7.4 | 105.0 | 129.0
CC(C)(C)c1ccc(C(=O)NNc2cc(N3CCOCC3)nc(N3CCOCC3)n2)cc1 | -21.5 | -10.3 | 103.0 | 100.0
COC(=O)C1=C(C)NC(C)=C(C(=O)OC)C1C(=O)OCCCn1c(=O)[nH]c2ccccc21 | -16.0 | -15.0 | 102.0 | 109.0
CCN(CC)c1ccc(C(=O)N=c2sc3c4ccccc4ccc3n2C)cc1 | -12.5 | 2.2 | 99.0 | 96.0
COc1ccc(C2CCCCCN2C(=O)Cn2ncc(=O)c3ccccc32)cc1 (configuration not stated) | -8.0 | 14.8 | 96.0 | 94.0
CCc1nnc(NC(=O)Cc2ccsc2)s1 | -9.1 | -1.6 | 101.0 | 109.0
O=C1CC(Nc2c[nH]c(=O)[nH]c2=O)C(=O)N1c1ccc(Br)cc1 (configuration not stated) | 8.5 | nt | 103.0 | 103.0
CC(C)c1ccc(-n2cccc2)cc1 | 9.4 | 1.2 | 101.0 | 100.0
COC(=O)CSc1sc(=S)sc1SCC[n+]1ccccc1 | -57.2 | 7.9 | 102.0 | 100.0
O=C(CC1(O)C(=O)N(Cc2cccc(F)c2)c2ccccc21)c1ccco1 (configuration not stated) | 14.1 | 27.2 | 103.0 | 102.0
O=C(O)CCc1ccc2c(c1)OCCO2 | -12.2 | -0.7 | 103.0 | 103.0
COc1ccc(OC)c(NC(=O)CSc2nc3ccccc3nc2N2CCCC2)c1 | -13.1 | 10.8 | 100.0 | 102.0
O=C(COC(=O)Cn1cnc2ccccc2c1=O)NC12CC3CC(CC(C3)C1)C2 | -12.6 | -5.6 | 100.0 | 98.0
Cc1ccc(S(=O)(=O)Nc2ccccc2C(=O)Nc2nccs2)cc1 | 10.1 | 106.0 | 101.0 | 103.0
COCC(C)n1c(C)cc(C(=O)COC(=O)/C(=C/c2cccs2)c2cccs2)c1C (configuration not stated) | -65.6 | 3.9 | 99.0 | 99.0
O=C(c1ccc2c(c1)N(Cc1ccccc1)C(=O)c1ccccc1S2)N1CCCC1 | -14.9 | 2.6 | 99.0 | 104.0
CCOC(=O)Cn1c(=N)n(Cc2ccccc2F)c2ccccc21 | 4.4 | -0.7 | 103.0 | 104.0

The list goes on, starting with the last five of the part before.
SMILES | MenB inh | Mtb MbtI inh | PV pol inh | PV pol inh intensity
O=C(COC(=O)Cn1cnc2ccccc2c1=O)NC12CC3CC(CC(C3)C1)C2 | -12.6 | -5.6 | 100.0 | 98.0
Cc1ccc(S(=O)(=O)Nc2ccccc2C(=O)Nc2nccs2)cc1 | 10.1 | 106.0 | 101.0 | 103.0
COCC(C)n1c(C)cc(C(=O)COC(=O)/C(=C/c2cccs2)c2cccs2)c1C (configuration not stated) | -65.6 | 3.9 | 99.0 | 99.0
O=C(c1ccc2c(c1)N(Cc1ccccc1)C(=O)c1ccccc1S2)N1CCCC1 | -14.9 | 2.6 | 99.0 | 104.0
CCOC(=O)Cn1c(=N)n(Cc2ccccc2F)c2ccccc21 | 4.4 | -0.7 | 103.0 | 104.0
c1ccc(-c2cc(N3CCOCC3)n3cnnc3n2)cc1 | 17.6 | 10.4 | 105.0 | 100.0
COc1cc2ccccc2cc1C(=O)NCC(F)(F)F | -7.6 | 99.5 | 101.0 | 107.0
CC1=[N+]([O-])C(C)(C)C(c2ccc(Cl)cc2)=[N+]1[O-] | -25.6 | 28.2 | 103.0 | 103.0
Brc1csc(CNCCc2ccco2)c1 | 7.7 | 9.4 | 86.0* | 95.0*
CCn1c(=N)n(CC(=O)c2ccc(Br)cc2)c2ccccc21 | -5.7 | nt | 102.0 | 106.0
CC1Cc2ccccc2N1C(=O)COC(=O)c1ccc(-n2cnnn2)cc1 (configuration not stated) | -2.6 | -8.9 | 106.0 | 100.0
Fc1c(F)c(C(F)(F)F)c(F)c(F)c1Sc1nc2ccccc2o1 | -69.2 | -11.8 | 101.0 | 103.0
CCOC(=O)c1csc(NC(=O)c2ccc(S(=O)(=O)N(CC)CC)cc2)n1 | -23.1 | 5.0 | 104.0 | 106.0
N=c1n(CCN2CCCCC2)c2ccccc2n1CC(=O)c1ccc(Br)s1 | -10.6 | 7.3 | 104.0 | 103.0
O=C(O)CCC(=O)N(Cc1ccco1)C1CC(=O)N(c2ccc(Cl)cc2)C1=O (configuration not stated) | -14.1 | nt | 102.0 | 107.0
CCOc1ccc(C(=O)OC(C)CN2CCCCC2)cc1 (configuration not stated) | 12.7 | -2.0 | 103.0 | 104.0
CCOC(=O)/C(C#N)=C1\SC=C(c2ccccc2)N1c1c(C)cccc1C | 7.6 | -12.4 | 103.0 | 101.0
O=C(CCc1ccccc1)Nc1cccc(NC(=O)CCc2ccccc2)n1 | -35.9 | nt | 96.0 | 95.0
Cc1ccc(C)c(C(C)NC(=O)Cc2c(C)noc2C)c1 (configuration not stated) | 2.0 | -5.3 | 99.0 | 108.0
COc1cccc(C2=NOC(C(=O)NC3CCCC3)C2)c1 (configuration not stated) | -7.4 | -6.5 | 101.0 | 104.0
O=C(CSCc1cnn(-c2ccccc2)c1-n1cccc1)N1CCN(c2ccc(F)cc2)CC1 | -33.9 | 9.9 | 101.0 | 105.0
Cn1nc(C(=O)N2CCN(c3cccc(C(F)(F)F)c3)CC2)c2c1-c1ccccc1OC2 | -7.9 | -9.3 | 101.0 | 98.0
COc1ccccc1NC(=O)C(C#N)Cc1cc2cc(C)cc(C)c2[nH]c1=O (configuration not stated) | 34.2 | -20.2 | 100.0 | 101.0
c1cc2c3c(cccc3c1)NC1(CCCCC1)N2 | 20.9 | i | 100.0 | 103.0
COC(=O)c1ccccc1S(=O)(=O)N1CCN(c2ncccn2)CC1 | -10.6 | -6.5 | 101.0 | 104.0
COc1ccc(C2=NN(C(=O)COC(=O)c3ccc4c(c3)C(=O)N(CCC(C)C)C4=O)C(c3ccco3)C2)cc1 (configuration not stated) | 5.0 | 1.7 | 102.0 | 103.0
CCn1c(CN(C)c2ccccc2)nc2cc(S(=O)(=O)N(C)C)ccc21 | -6.3 | -30.0 | 103.0 | 125.0
CCn1c(NC(=S)Nc2ccccc2)nc2ccccc21 | -67.6 | -36.3 | 101.0 | 103.0
CCOC(=O)C1CCCN(C(=O)C2CCCCC2)C1 (configuration not stated) | -9.4 | 7.0 | 100.0 | 101.0
Cc1cc(NC(=O)/C=C/c2cccs2)n(-c2ccccc2C(F)(F)F)n1 | nt | -1.3 | 98.0 | 99.0
C/C(=N\OCC(=O)Nc1ccc2c(c1)OCCO2)c1cc2ccccc2o1 | 13.5 | 0.8 | 102.0 | 98.0
COc1ccc(NC(=O)COc2ncnc3sccc23)cc1 | -1.5 | -6.2 | 106.0 | 113.0
Cc1cc(Cl)c(C(=O)NC(C)C2CC2)cc1Cl (configuration not stated) | nt | -6.7 | 101.0 | 98.0
Cc1cc(-n2sc3ccccc3c2=O)c2ccccc2n1 | 2.5 | -1.8 | 121.0 | 148.0
N#Cc1c(/N=C/c2ccc(F)c(F)c2)sc2c1CCC2 | nt | -14.1 | 102.0 | 108.0
O=[n+]1cc(-c2ccc(F)cc2)n([O-])c2c1CCC2 | -18.7 | 19.1 | 99.0 | 101.0
N#Cc1ccc(COC(=O)CC2CCS(=O)(=O)C2)cc1 (configuration not stated) | 1.6 | -1.6 | 100.0 | 105.0
COc1cccc(CN(Cc2ccco2)C(c2nnnn2Cc2ccc(F)cc2)C(C)C)c1 (configuration not stated) | -57.3 | -1.8 | 104.0 | 102.0
O=c1oc2ccccc2cc1-c1nc(C2CC2)cs1 | 4.5 | -11.8 | 100.0 | 102.0
Clc1cccc(-n2cc(-c3ccccc3)c3c(NCC4CCCO4)ncnc32)c1 (configuration not stated) | -27.1 | -1.2 | 103.0 | 106.0
COc1ccccc1NC(=O)Cc1noc(COC(=O)c2cccc(S(=O)(=O)N3CCc4ccccc43)c2)n1 | -11.0 | 9.9 | 107.0 | 111.0
Cc1cc(N)nc(=S)[nH]1 | 11.6 | 12.6 | 104.0 | 105.0
COC(CN(C)C(=O)C1CCCN(S(=O)(=O)c2ccc3c(c2)oc(=O)n3C)C1)OC (configuration not stated) | -20.8 | -3.4 | 102.0 | 103.0
Cc1nn(-c2ccccc2)c(C)c1CN(C)C(=O)c1cc(C2CC2)nn1-c1ccccc1 | -34.3 | 0.2 | 104.0 | 109.0
CCNc1ncnc2onc(C)c12 | -9.8 | 5.7 | 102.0 | 103.0

The final four entries of the part before open the next one.
SMILES | MenB inh | Mtb MbtI inh | PV pol inh | PV pol inh intensity
Cc1cc(N)nc(=S)[nH]1 | 11.6 | 12.6 | 104.0 | 105.0
COC(CN(C)C(=O)C1CCCN(S(=O)(=O)c2ccc3c(c2)oc(=O)n3C)C1)OC (configuration not stated) | -20.8 | -3.4 | 102.0 | 103.0
Cc1nn(-c2ccccc2)c(C)c1CN(C)C(=O)c1cc(C2CC2)nn1-c1ccccc1 | -34.3 | 0.2 | 104.0 | 109.0
CCNc1ncnc2onc(C)c12 | -9.8 | 5.7 | 102.0 | 103.0
COc1ccccc1N1CCN(C(=O)c2cc3ccc4cccnc4c3[nH]2)CC1 | -19.9 | -16.9 | 102.0 | 102.0
CC(=O)N1N=C(c2ccc3ccccc3c2)OC12CCCC2 | -20.7 | i | 102.0 | 109.0
COC(=O)/C(C#N)=C/c1ccc(-c2ccccc2)o1 | -369.8 | -7.2 | 82.0 | 129.0
Cc1cc(=O)oc2c3c(ccc12)OCC3=O | 4.3 | -35.1 | 101.0 | 124.0
C=CCN(CC=C)S(=O)(=O)c1nc2nc(C)cc(C)n2n1 | -9.1 | nt | 101.0 | 90.0
CC(C)S(=O)(=O)c1cscc1NC(=O)c1ccc(-c2cc(C(F)(F)F)nn2C)s1 | -2.9 | 28.4 | 106.0 | 116.0
CCn1c(SCC(=O)N2CCc3ccccc3C2)nnc1C(C)NC(=O)c1ccccc1 (configuration not stated) | -20.0 | -3.9 | 101.0 | 102.0
Cc1ccc(NC(=O)c2ccco2)cc1NC(=O)CSc1ncnc2sc3c(c12)CCC3 | -43.4 | -3.5 | 105.0 | 106.0
O=C(c1cccc(S(=O)(=O)N2CCCC2)c1)N1CCCc2ccccc21 | nt | -0.4 | 99.0 | 105.0
CCOc1ccc(NCCC(=O)c2ccc3c(c2)OCO3)cc1 | -4.3 | 17.9 | 99.0 | 100.0
